Bioassay records from PubChem BioAssay.
Six1-Eya2 blk: Six1/Eya2 interaction inhibition; AlphaScreen GST-Six1/His-Eya2 binding, biochemical; hits give low values; control for the full effect not named in the record; 360,000 compounds, 0.56% hits; activity change, % (concentration not given with the values); Q15475+O00167; in the data active = activity change below about -65%; inconclusive = about -30% to -65%; inactive = above about -30%; further: on the % scale 0 is the no-effect control and ±100 the full control effect
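Compounds are tested against tagged Six1 and Eya2 proteins bridged by glutathione donor and nickel acceptor beads; after a one-hour incubation at 37 °C without light, AlphaScreen emission is recorded.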
gsp agonist: agonists of gsp mutant (McCune-Albright syndrome). gsp mutant cells, cAMP HTRF, 30 min; control for the full effect not named in the record. Potency, µM (top dose mostly 76.9 µM), for inactives: at the top dose activation (cAMP increase), most hits filed as activators. 340,000 compounds, 0.13% hits; active = well fitted activation curve with a large enough effect; inconclusive = small, poorly fitted or top-dose-only effect, or another doubt; inactive = no such curve, though single readings can be large or run the other way; cell line not stated here;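 further: phosphodiesterase inhibitor Ro 20-1724 added with compounds to block cAMP breakdown; potency means the concentration at half of the fitted maximal effect; nearly all actives have a fitted effect of over 60% in size; about a fifth of the inactives were tested at one dose only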
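Cells in DMEM/10% FBS with G418 were pretreated with compounds in DMSO plus […] (300 uM stock) for 30 min at 37C. cAMP was measured by HTRF (cAMP-d2 plus anti-cAMP antibody-K) after 30 min at room temperature.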
D2 ag: agonists of human D2 dopamine receptor (beta-arrestin). DiscoveRx PathHunter D2 beta-arrestin, luminescence, 90 min; 100% = 57 uM dopamine signal. activation, % (no concentration beside the values). 360,000 compounds, 0.084% hits. AID 624465; in the data active = activation above about 40%; inconclusive = about 15% to 40%; inactive = below about 15%; further: compound concentration not given in the record; the text of the record calls up to 30% inactive
Target sequence (P14416 whole entry, looked up): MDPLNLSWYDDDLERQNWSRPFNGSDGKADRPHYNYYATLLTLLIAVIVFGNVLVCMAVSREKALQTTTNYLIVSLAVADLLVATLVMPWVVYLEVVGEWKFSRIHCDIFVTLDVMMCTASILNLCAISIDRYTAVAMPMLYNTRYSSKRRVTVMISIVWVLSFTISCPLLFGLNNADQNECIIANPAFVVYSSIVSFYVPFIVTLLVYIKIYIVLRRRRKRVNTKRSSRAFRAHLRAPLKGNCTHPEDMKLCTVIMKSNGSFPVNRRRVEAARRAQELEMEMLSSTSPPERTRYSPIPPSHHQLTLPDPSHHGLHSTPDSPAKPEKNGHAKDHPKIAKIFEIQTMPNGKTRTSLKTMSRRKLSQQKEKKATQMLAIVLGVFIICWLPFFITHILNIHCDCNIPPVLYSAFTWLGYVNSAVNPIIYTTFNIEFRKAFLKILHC
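DiscoveRx PathHunter D2 beta-arrestin cells (2,100/well) attached overnight, then compound-stimulated 90 min at 37 C in HBSS/10 mM HEPES/0.1% Tween-20 buffer; beta-galactosidase complementation read by luminescence after 1 h at ambient temperature. Dopamine 57 uM final (EC100) as control.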
CtBP-E1A inh: inhibitors of CtBP/E1A interaction; AlphaScreen GST-E1A/His-CtBP binding, 1536-well; hits give low values; control for the full effect not named in the record; activity change, % (no concentration beside the values); 340,000 compounds, 0.49% hits; in the data active means activity change below about -65%; inconclusive means about -30% to -65%; inactive means above about -30%; further: on the % scale 0 is the no-effect control and ±100 the full control effect
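Protein mix (5X: 125 nM each GST-E1A, His-CtBP) was incubated with pinned compound 2 h at 37 deg C in dark, in 50 mM Tris pH 8.0 buffer with 300 mM NaCl. Glutathione donor and nickel acceptor beads followed; AlphaScreen signal read after 1 h.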
D2 potentiator: positive allosteric modulators of human D2 dopamine receptor | DiscoveRx D2 beta-arrestin cells, luminescence, 90 min; 100% = 57 uM dopamine signal | potentiation, % (concentration not given with the values) | 360,000 compounds, 0.23% hits | P14416; active = potentiation of 50% or more; inconclusive = 30% to 50%; inactive = 30% or less;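 further: tested on top of an EC20 dose of dopamine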
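D2 cells co-treated with compound plus 50 nM dopamine (EC20) for 90 min at 37 deg C to detect potentiation. Beta-arrestin recruitment was read as enzyme-fragment luminescence after 1 h at ambient temperature. Full response was set by 57 uM dopamine.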
gsp antagonist: antagonists of gsp mutant (McCune-Albright syndrome) | gsp-mutant cells, cAMP HTRF, 30 min; control for the full effect not named in the record | Potency, µM (doses to about 76.9 µM), for inactives: at the highest dose activity change, negative = inhibition, most hits filed as inhibitors | 340,000 compounds, 0.4% hits; active = falling curve of any shape with a large fitted effect; inconclusive = falling curve, mostly with a smaller effect; inactive = flat or rising curve; cell line not stated here;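 further: intracellular cAMP measured with PDE inhibitor Ro 20-1724 present during compound exposure; potency means the concentration at half of the fitted maximal effect; on the % scale 0 is the no-effect control and ±100 the full control effect; nearly all actives have a fitted effect of over 65% in size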
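HTRF cAMP read-out (cAMP-d2 plus anti-cAMP antibody-K in lysis buffer, 30 min RT). Before lysis, cells are exposed to compounds with […] for 30 min at 37C in DPBS containing Ca/Mg, BSA and Tween 20.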
An asterisk follows results filed as active; ? = inconclusive; . = not tested or not shown; [ ] = dose if it differs, or a comment.

Start of the listing, in advance:
entry	Six1-Eya2 blk	SMILES	gsp antagonist	D2 ag	gsp agonist	D2 potentiator	CtBP-E1A inh
1	-15	CCOc1ccc(NC(=O)C(c2ccccn2)N(C(=O)CCl)c2ccc(OCC)cc2)cc1 (stereo not given)	4%	3.5	6%	10	-14
2	-29	COc1ccc(C2=C(C=C(C#N)C#N)C(c3ccccc3C)c3ccccc3O2)cc1OC (stereo not given)	4%	-0.5	25%	-11	7
3	4	Cn1c(=O)[nH]c(=O)c2[nH]c(CN3CCN(Cc4ccccc4)CC3)nc21	5%	-2.4	4%	-4	0
4	-14	Cc1ccc(C(=O)N/N=C\c2cc3c(cc2Br)OCO3)s1	7%	-2.8	-11%[15.4 µM]	-10	-4
5	3	Cc1ccc(SCc2cn3c(C)cc(C)nc3n2)cc1	-11%	0.8	2%	-4	-15
6	-1	COC(=O)N/N=C/c1ccc(/C=N/NC(=O)OC)cc1	-3%	-0.6	9%[15.4 µM]	0	.
7	7	COCC(C)n1c(SCC(=O)N2CCOCC2)nc2ccccc2c1=O (stereo not given)	3%	0.1	16%	-3	.
8	-1	Cc1csc2c(=O)sc(NC(=O)c3ccco3)nc12	-7%	-2.5	?	-10	-9
9	-3	C=CCn1c(COc2cccc(C)c2)nnc1SCC(=O)NC(=O)NCc1ccco1	-5%	0.0	-29%	6	-10
10	-19	COc1cc2c(cc1OC)C1(Nc3c-2c(-c2ccccc2)nn3-c2ccccc2)C(=O)Nc2ccccc21 (stereo not given)	4%	2.5	16%	-3	-23
11	9	CCC(c1nnc(SCC(=O)NNC(=O)c2ccccc2)n1Cc1ccccc1)N(C)C (stereo not given)	11%	-2.9	-12%	-17	9
12	9	C=CC[C@@H](CC(=O)NCCO)C(=O)NCCOC(=O)[C@@H](CC=C)Cc1ccc(F)cc1	6%	-2.6	.	.	5
13	3	CN(C)/C=C/C(=O)c1ccc(Cl)cc1	-8%	-2.4	?	-13	6

This part in full (from the top)
entry	Six1-Eya2 blk	SMILES	gsp antagonist	D2 ag	gsp agonist	D2 potentiator	CtBP-E1A inh
1	-15	CCOc1ccc(NC(=O)C(c2ccccn2)N(C(=O)CCl)c2ccc(OCC)cc2)cc1 (stereo not given)	4%	3.5	6%	10	-14
2	-29	COc1ccc(C2=C(C=C(C#N)C#N)C(c3ccccc3C)c3ccccc3O2)cc1OC (stereo not given)	4%	-0.5	25%	-11	7
3	4	Cn1c(=O)[nH]c(=O)c2[nH]c(CN3CCN(Cc4ccccc4)CC3)nc21	5%	-2.4	4%	-4	0
4	-14	Cc1ccc(C(=O)N/N=C\c2cc3c(cc2Br)OCO3)s1	7%	-2.8	-11%[15.4 µM]	-10	-4
5	3	Cc1ccc(SCc2cn3c(C)cc(C)nc3n2)cc1	-11%	0.8	2%	-4	-15
6	-1	COC(=O)N/N=C/c1ccc(/C=N/NC(=O)OC)cc1	-3%	-0.6	9%[15.4 µM]	0	.
7	7	COCC(C)n1c(SCC(=O)N2CCOCC2)nc2ccccc2c1=O (stereo not given)	3%	0.1	16%	-3	.
8	-1	Cc1csc2c(=O)sc(NC(=O)c3ccco3)nc12	-7%	-2.5	?	-10	-9
9	-3	C=CCn1c(COc2cccc(C)c2)nnc1SCC(=O)NC(=O)NCc1ccco1	-5%	0.0	-29%	6	-10
10	-19	COc1cc2c(cc1OC)C1(Nc3c-2c(-c2ccccc2)nn3-c2ccccc2)C(=O)Nc2ccccc21 (stereo not given)	4%	2.5	16%	-3	-23
11	9	CCC(c1nnc(SCC(=O)NNC(=O)c2ccccc2)n1Cc1ccccc1)N(C)C (stereo not given)	11%	-2.9	-12%	-17	9
12	9	C=CC[C@@H](CC(=O)NCCO)C(=O)NCCOC(=O)[C@@H](CC=C)Cc1ccc(F)cc1	6%	-2.6	.	.	5
13	3	CN(C)/C=C/C(=O)c1ccc(Cl)cc1	-8%	-2.4	?	-13	6
14	6	O=C(COC(=O)C1CCC(=O)N1)Nc1ccccc1OC(F)F (stereo not given)	5%	4.2	-14%	1	1
15	14	Cc1cccc(CN2CCN(CC(=O)NCCCN3CCCC3=O)C2=O)c1	5%	2.5	2%	-19	-2
16	13	Cc1cc(C)c(C#N)c(OCC(=O)c2ccc(Br)cc2)n1	20%	1.5	8%	-9	19
17	4	COc1cc(OC)cc(-c2c(-c3ccc(F)cc3)c3cc(-c4cnc(OC)nc4)ccc3n2C)c1	4%	0.7	-15%	0	.
18	3	O=c1c2[nH]cnc2n(-c2ccccc2)c(=O)n1Cc1ccccc1	15%	-4.7	-3%	-9	1
19	0	Clc1ccccc1-c1cnc2sc(NCc3ccc4c(c3)OCO4)nn12	.	9.1	.	15	-2
20	-11	CN1CCN(C(=O)CSc2nnc(COc3ccccc3)o2)CC1	-14%	-4.1	-2%[15.4 µM]	6	0
21	-88*	Cc1cc(C)n(CC(=O)N/N=C/c2cc([N+](=O)[O-])ccc2O)n1	6%	-4.0	-5%	-37	-91*
22	-17	COc1cccc(C(c2nnnn2CCc2ccccc2)N2CCN(c3ccccc3)CC2)c1OC (stereo not given)	-2%	-2.1	-30%	-8	-19
23	1	CCCCN(C(C)=O)C1CC(=O)N(c2ccc(OCCC)cc2)C1=O (stereo not given)	3%	-3.9	-11%	-17	.
24	0	COc1ccc(NC(=O)c2ccc(OCc3c(C)noc3C)c(OC)c2)cn1	-7%	-0.7	14%[15.4 µM]	-3	0
25	-9	CCCCNC(=O)C1(C)CCCCN1C(=O)c1ccc(C)c(F)c1 (stereo not given)	.	-8.0	.	-4	-3
26	0	Cc1csc(NC(=O)CSc2nnc(C)c(=O)n2N)n1	2%	1.3	-24%	1	7
27	-3	COc1ccc(NS(=O)(=O)c2cccc(C(=O)NN=C(C)c3ccco3)c2)cc1	6%	-4.4	3%	-9	.
28	0	CC(=O)N1N=C(c2cccs2)CC1c1ccc(Br)cc1 (stereo not given)	-16%	1.4	?	-1	1
29	-6	O=C(COc1ccc2c3c(c(=O)oc2c1)CCCC3)NCCCN1CCOCC1	-9%	-2.9	-4%	-7	-12
30	4	CSc1ncccc1C(=O)NCC1CCCCC1	17%	3.7	?	-18	2
31	-2	Cc1ccccc1NC1=C(Cl)C(=O)OC1OC(C)C (stereo not given)	17%	-2.8	-26%	-2	2
32	9	Cc1c(C2Nc3ccccc3C(=O)N2O)cnn1C (stereo not given)	1%	-1.2	-6%	15	2
33	0	CCN(CC)C(=O)CN1C(=O)C2(OCC(C)(c3ccccc3)CO2)c2ccccc21 (stereo not given)	-8%	-1.0	23%	-30	9
34	-1	CN(C)S(=O)(=O)c1ccc(Cl)c(C(=O)Nc2nc3ccccc3[nH]2)c1	4%	1.8	?	6	?
35	7	CN(C)c1ccc(/C=C/C(=O)c2ccc(O)cc2)cc1	-7%	4.3	25%	0	-2
36	11	CC1CCN(C(=O)c2[nH]cnc2C(=O)N[C@@H](C)c2ccccc2)CC1	-1%	-2.2	1%	-6	-15
37	4	CC(C)CN1C(=O)C(=O)N(CC(=O)Nc2cc(Cl)ccc2Oc2ccccc2)C1=O	-18%	-5.4	12%[15.4 µM]	-6	-6
38	-12	Cc1ccc(S(=O)(=O)NNC(=O)C2CCN(S(=O)(=O)c3ccc(C)cc3)CC2)cc1	-8%	-2.2	-12%	1	-13
39	6	COc1cc2ccccc2cc1C(=O)Nc1ccc2oc(=O)ccc2c1	4%	-0.2	-6%[15.4 µM]	-6	1
40	-16	COc1ccc(S(=O)(=O)N2CN(Cc3ccco3)c3nc4ccccc4nc32)cc1	-9%	0.6	-10%	-7	-8
41	-17	CCOCCn1c(C)c(C(=O)OCC)c2cc(O)c3ccccc3c21	-13%	-14	8%	?	-1
42	10	CCOc1cc2c(cc1OCC)C(c1ccccc1OC)OC(=O)C2 (stereo not given)	7%	0.0	0%[15.4 µM]	-11	-2
43	?	N#Cc1nc(-c2cccs2)oc1N1CCN(Cc2ccccc2)CC1	-4%	-1.2	11%	-24	4
44	-1	CC(C)C(c1nnnn1Cc1ccc(F)cc1)N1CCN(Cc2ccc3c(c2)OCO3)CC1 (stereo not given)	-3%[15.4 µM]	-2.8	7%	-41	-9
45	8	Cc1ccc(S(=O)(=O)CC(=O)Nc2ncc([N+](=O)[O-])s2)cc1	-22%	-5.7	0%[15.4 µM]	-12	2
46	-5	C#CCn1c(=NC(=O)c2cccs2)sc2cccc(OCC)c21	-4%	-3.6	?	-8	6
47	7	CCC(C)(NC(=O)c1ccccn1)C(=O)NC1CCCCC1 (stereo not given)	8%	0.1	-38%[inhibitor]	-6	5
48	-70*	O=C1C(=Cc2cn(-c3ccccc3)nc2-c2ccc(OCc3ccccc3F)cc2)SC(=S)N1CCS(=O)(=O)O	.	-3.4	.	0	-15
49	-13	O=C(Nc1cc(S(=O)(=O)N2CCCC2)ccc1OCC(F)(F)F)c1ccncc1	.	0.8	-5%	-9	1
50	-4	O=C(CCN1C(=O)C2C3C=CC(C3)C2C1=O)Oc1ccc2ccccc2c1 (stereo not given)	-2%	-2.5	-6%	-1	6
51	3	CCCc1cc(=O)oc2cc(C)cc(OC(C)C(=O)NCC3CCC(C(=O)O)CC3)c12 (stereo not given)	0%	-1.8	-39%[inhibitor]	-2	2
52	-14	CC(C)c1nc(SCC(=O)Nc2c[nH]c(=O)[nH]c2=O)c2cnn(-c3ccccc3)c2n1	2%	1.7	27%	-3	4
53	2	CC(Nc1ccc(Br)cc1)C(=O)NC(=O)NC1CCCCC1 (stereo not given)	.	2.4	2%	-14	-1
54	0	CC(C)(C)NC(=S)N/N=C\c1ccc(-c2ccc([N+](=O)[O-])cc2)o1	-13%	-1.5	8%[15.4 µM]	1	3
55	11	CC(NC(=O)Nc1ccc(F)cc1)c1ccc2c(c1)OCO2 (stereo not given)	-8%	-4.3	7%	-25	3
56	-11	CN(Cc1ccccc1)C(=O)c1[nH]cnc1C(=O)N[C@@H](CCCCNC(=O)OC(C)(C)C)C(=O)OC(C)(C)C	0%	7.4	-27%	1	.
57	-19	CSCCC(NC(=O)/C(=C/c1ccco1)NC(=O)c1ccco1)C(=O)O (stereo not given)	-1%	-0.4	-12%[15.4 µM]	6	-22
58	17	O=S(=O)(/N=C(/c1ccccc1)N1CCCCCC1)c1ccccc1	5%	-7.3	-20%[15.4 µM]	-7	0
59	2	CC(Sc1nnc(-c2ccc(OC(F)F)cc2)n1N)C(=O)NCC1CCCO1 (stereo not given)	1%	-4.3	-44%[inhibitor]	-9	-7
60	-4	Cc1cc(C)c(S(=O)(=O)NC2CC(C)(C)NC(C)(C)C2)cc1Br	21%	-2.7	-31%	-5	5
61	-2	COc1ccc(C(=O)NCC(=O)OCC(=O)NC(=O)c2ccc(C(C)(C)C)cc2)cc1OC	50µM*	5.5	0%	0	5
62	9	CCOC(=O)C(=O)Nc1nc(-c2ccc3c(c2)CCN3C(=O)C2CC2)c(C)s1	?	1.9	-41%[inhibitor]	12	7
